# Screens: PubChem BioAssay, several laboratories
# RGS16-Gao = modulates binding between human RGS16 and Galphao; O15492+P09471; bead-based flow cytometry RGS16-Galphao binding, fluorescence; actives lie on both sides; binding response (% of control), % at 10 µM; 0.38% of 220,000 active; AID 1441;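 active = below 25% or above 175%, edge rows of some plates excepted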;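 also: Galphao activated by GDP with aluminum fluoride before binding; 100% = wells without compound and 0% = beads without RGS; some results beyond the cut were filed as inactive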
# Target sequence (O15492 whole entry, looked up): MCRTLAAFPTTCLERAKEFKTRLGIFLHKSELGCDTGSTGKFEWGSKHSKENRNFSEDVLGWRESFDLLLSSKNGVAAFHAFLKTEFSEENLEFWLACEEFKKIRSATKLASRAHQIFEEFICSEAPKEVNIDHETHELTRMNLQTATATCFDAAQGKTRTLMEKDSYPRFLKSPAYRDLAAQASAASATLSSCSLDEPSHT
# Target sequence (P09471 whole entry, looked up): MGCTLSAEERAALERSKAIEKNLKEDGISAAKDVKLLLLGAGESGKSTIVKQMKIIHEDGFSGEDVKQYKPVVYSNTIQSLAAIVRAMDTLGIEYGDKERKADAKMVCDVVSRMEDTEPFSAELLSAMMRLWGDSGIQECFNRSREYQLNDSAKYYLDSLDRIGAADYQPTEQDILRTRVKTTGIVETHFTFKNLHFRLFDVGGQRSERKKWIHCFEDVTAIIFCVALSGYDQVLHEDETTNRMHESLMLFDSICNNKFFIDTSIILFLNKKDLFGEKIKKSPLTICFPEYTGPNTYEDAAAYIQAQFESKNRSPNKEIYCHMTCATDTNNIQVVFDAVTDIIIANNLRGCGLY
# GALR2 ag = agonists of human galanin receptor 2 (GALR2); O43603; GALR2-expressing cells, agonist activation read-out; activation, %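 (tested at 5 µM)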; 0.48% of 140,000 active;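 active = above mean plus 3 SD of all compounds, about 5% in these data, not always enough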;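 also: 0% = vehicle buffer wells and 100% = reference agonist at full effect; tested in CHO reporter cells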
# Target sequence (O43603 whole entry, looked up): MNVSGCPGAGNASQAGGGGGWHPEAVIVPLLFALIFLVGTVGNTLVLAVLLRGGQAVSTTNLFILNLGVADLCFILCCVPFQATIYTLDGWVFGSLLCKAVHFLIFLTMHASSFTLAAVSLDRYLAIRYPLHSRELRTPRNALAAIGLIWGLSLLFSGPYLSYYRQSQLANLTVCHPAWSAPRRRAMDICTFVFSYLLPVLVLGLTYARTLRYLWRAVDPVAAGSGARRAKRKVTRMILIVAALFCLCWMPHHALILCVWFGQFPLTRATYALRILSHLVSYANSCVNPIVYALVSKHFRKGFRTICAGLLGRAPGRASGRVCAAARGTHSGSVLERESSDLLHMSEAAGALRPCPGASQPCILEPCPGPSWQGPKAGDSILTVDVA
# HSV replic up = HSV replication enhancement. 0.005% of 220,000 active. maximum fold increase. HSV replication augmentation in cells, fold increase;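 active = peak rise of 1.5-fold or more in the series; tested in PC3 cells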;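 also: first round at 10 µM; read as green reporter fluorescence; hits show the peak of a series up to 25 µM; 1 = signal of infected wells without compound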
# Insulin prom inh = TRM-6 insulin promoter activity inhibition | TRM-6 cells (human fetal islet line), insulin promoter-eGFP reporter, imaging; reporter expression induced with tamoxifen | inhibition, % at 2 µM | 0.9% of 130,000 active | AID 1273;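 active = inhibition above the mean plus 3 SD, with well images judged a real hit on visual review, cut at about 60% in these data, passing the limit was not always enough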
# PKD1 inh = inhibitors of human PKD1 kinase | Q15139 | PKD1 kinase fluorescence polarization assay | inhibition, %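 (about 10 µM by stock and volumes)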 | 0.056% of 200,000 active | AID 797;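 active = inhibition of 50% or more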;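 also: controls were vehicle for no effect and a reference inhibitor for full effect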
# Insulin prom inh cell count = recorded beside Insulin prom inh, whose call it bears; normalized cell count, %; measured here: cell count, toxicity; reference of the scale not given here;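 cells exposed to compound for 48 h; stained nuclei by imaging scaled within each plate; lower means fewer cells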
# HSV replic up primary fold = second read-out of HSV replic up, no call of its own (marks repeat the call); fold increase; compound at 10 µM; measured here: primary screen fold increase 10 uM; tested in PC3 cells;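 GFP signal in the first replicate; 1 = infected wells without compound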
# Starred values were filed as active, the others as inactive; i = inactive; / = no result given; & = joins results of further samples; [ ] = dose if it differs, or a comment.
SMILES,RGS16-Gao,GALR2 ag,HSV replic up,HSV replic up primary fold,Insulin prom inh,Insulin prom inh cell count,PKD1 inh
COCc1cc(=O)n2[nH]c(-c3ccccc3)cc2n1,104,-2.1,i,0.92,10,87,-4
O=c1[nH]cc(C(F)(F)F)cc1NS(=O)(=O)c1ccccc1[N+](=O)[O-],109,/,i,1,-17,82,-1
O=C(NCc1cccs1)C1CCCN1C(=O)NC1CCCCC1 (configuration not stated),106,-0.3,i,0.94,/,/,-12
O=C(Nc1ccccc1NC(=O)c1ccco1)c1ccco1,-27*,1.9,i,0.81,/,/,-7
CCOc1cc2[nH]c(=S)n(CCCN(CC)CC)c(=O)c2cc1OCC,/,-2.5,i,0.83,-14,77,4
COc1cccc(-n2c(SCC(=O)N3CCOCC3)nc3c([nH]c4ccccc43)c2=O)c1,/,0.5,i,0.81,33,31,-6
COc1cccc(/C=N/n2c(-c3cc(C)[nH]n3)n[nH]c2=S)c1O,99,/,i,0.98,/,/,/
CCN(/N=C/c1ccc(N(C)C)cc1)c1nc2ccccc2[nH]1,101,-1.9,i,0.69,87*,159*,-15
O=C(O)C1CCCCN1S(=O)(=O)c1cccc2nsnc12 (configuration not stated),96,1.0,i,1.1,/,/,0
NS(=O)(=O)c1ccc(CCNC(=O)c2cc(-c3cc(Cl)ccc3O)n[nH]2)cc1,103,/,i,0.88,/,/,/
O=S(=O)(c1cccc(S(=O)(=O)N2CCC(N3CCCCC3)CC2)c1)N1CCOCC1,106,-1.8,i,1,i,51,-7
Cn1c(/C=N/O)nc2ccccc21,114,/,i,0.91,/,/,/
Cc1ccc2nc(Cl)c(/C=N/n3c(C)nnc3C)cc2c1,102,/,i,0.98,/,/,4
CCCN(Cc1nc(-c2ccc(Cl)cc2)no1)CC1CCCO1 (configuration not stated),112,/,i,1,/,/,-1
O=C(/C=C/c1cccs1)NC(=S)NNC(=O)c1ccccc1O,100,/,i,0.83,-150,80,1
CCCc1[nH]nc2c1C(c1ccc(OC)c(Cn3nnc4ccccc43)c1)C(C#N)=C(N)O2 (configuration not stated),97,-0.8,i,0.81,20,100,-5
Cc1nn(-c2ccccc2)c2c1/C(=N/O)CC(C)(C)C2,113,-0.7,/,/,/,/,0
O=C(Cn1nc(C(F)(F)F)c2c1CCCC2)NCc1ccco1,98,0.1,i,1,-21,66,6
O=C(Nc1ccc(-c2nc3ccccc3s2)cc1)c1cc(-n2cnnc2)ccc1Cl,103,0.1,i,0.64,/,/,5
O=C(NCc1ccccn1)c1cc(-c2ccccc2)nc2ccccc12,102,-1.9,i,0.85,23,95,-2

# Compound profiles (already shown). Order of screens: RGS16-Gao	GALR2 ag	HSV replic up	HSV replic up primary fold	Insulin prom inh	Insulin prom inh cell count	PKD1 inh
# CCOc1cc2[nH]c(=S)n(CCCN(CC)CC)c(=O)c2cc1OCC in the list: /	-2.5	i	0.83	-14	77	4
# O=S(=O)(c1cccc(S(=O)(=O)N2CCC(N3CCCCC3)CC2)c1)N1CCOCC1 in the list: 106	-1.8	i	1	i	51	-7
# Cc1ccc2nc(Cl)c(/C=N/n3c(C)nnc3C)cc2c1 in the list: 102	/	i	0.98	/	/	4
# Cn1c(/C=N/O)nc2ccccc21 in the list: 114	/	i	0.91	/	/	/

# For convenience, 3 of the compounds above:
SMILES,RGS16-Gao,GALR2 ag,HSV replic up,HSV replic up primary fold,Insulin prom inh,Insulin prom inh cell count,PKD1 inh
O=C(Cn1nc(C(F)(F)F)c2c1CCCC2)NCc1ccco1,98,0.1,i,1,-21,66,6
O=C(Nc1ccc(-c2nc3ccccc3s2)cc1)c1cc(-n2cnnc2)ccc1Cl,103,0.1,i,0.64,/,/,5
O=C(NCc1ccccn1)c1cc(-c2ccccc2)nc2ccccc12,102,-1.9,i,0.85,23,95,-2

# (more compounds)
SMILES,RGS16-Gao,GALR2 ag,HSV replic up,HSV replic up primary fold,Insulin prom inh,Insulin prom inh cell count,PKD1 inh
Cc1cccc(NC(=O)c2sc3nc(N)c(C#N)cc3c2N)c1,100,-0.6,i,1,23,114,13
COc1ccc(C(=O)N2CCN(c3ccc(C)cc3)CC2)cc1OC,103,-2.2,i,0.83,/,/,-11
COc1ccc(-n2c(=S)[nH]c3cc(C(=O)NCCCN4CCCC4=O)ccc3c2=O)cc1,98,-1.8,/,/,-3,112,-4
Cc1ccc(CCNC(=O)CC2Oc3ccc(C)cc3NC2=O)cc1 (configuration not stated),112,0.2,i,0.97,/,/,-8
COC(=O)C1(C(=O)OC)Sc2ccccc2C1=O,105,-1.9,i,0.89,-39,36,16
COc1ccc(Br)cc1CN(C)CC(=O)Nc1c(Cl)ccc(C)c1Cl,105,-0.7,i,0.86,/,/,-1
CC(C)CC(NS(=O)(=O)c1ccc2c(c1)oc(=O)n2C)C(=O)N1CC=C(c2ccccc2)CC1 (configuration not stated),91,-0.4,i,0.97,/,/,3
CCOC(=O)c1ccc(N=CC2=C(O)CC(C)(C)CC2=O)cc1,117,-1.0,i,0.94,39,105,0
Cc1cc(C)n(CC(=O)N/N=C/c2ccc(C)o2)n1,107,-3.3,i,1,-33,309,-5
COc1ccc(C(=O)NC2(C(F)(F)F)C(=O)N(Cc3ccco3)C3=C2C(=O)CC(C)(C)C3)cc1OC (configuration not stated),52,-1.6,i,0.81,-37,110,1
Nc1ncnc2nc(SCc3ccc(Cl)cc3Cl)[nH]c12,97,0.1,/,/,3,116,-10
Cc1ccc(-n2c(C)cn(C(=O)c3ccccc3)c2=S)cc1,58,-1.3,i,0.97,-28,72,-7
Cc1ccc(-n2c(Cc3cccn3C)nnc2SCC(=O)NCc2ccco2)cc1,89,-0.3,i,0.93,0,103,3
Cc1cc(NC(=O)c2ccc3c(c2)C(=O)N(CC(C)C)C3=O)no1,101,/,i,1.1,/,/,/
Cc1ccc2c(c1)C(=O)c1c(C(=O)O)cccc1-2,98,/,i,0.89,67,132,-1
O=C1NC(=O)/C(=C/c2ccc(N3CCOCC3)o2)N1,107,/,i,0.99,/,/,/
COc1ccc(OCCOC(=O)Nc2ccccc2)cc1,100,-3.1,i,0.89,/,/,0
Cc1cccc(NC(=O)c2oc3c(c2C)C(=O)CC(C)(C)C3)n1,97,0.7,i,0.95,-184,109,0
Cc1cc(C)c[n+](-c2nc3ccccc3nc2C(=C=[N-])C#N)c1,87&59,-2.4,i,1&1,27&-25,99&82,-6&0
Cn1nc(C(=O)NNc2c(F)c(F)cc(F)c2F)c2ccccc2c1=O,89,/,i,0.85,0,96,-3
COCCN=c1scc(-c2cc(OC)ccc2OC)n1/N=C/c1c[nH]c2ccccc12,107,-0.3,i,0.75,0,98,-3
O=C(CSc1nc2ccccc2c(=O)n1CCC(=O)N1CCN(c2ccccc2)CC1)NCC1CCCO1 (configuration not stated),98,/,i,0.9,-47,104,5
O=C(c1ccc(Oc2ccccc2)cc1)C1CCCN(C(=O)c2cnccn2)C1 (configuration not stated),101,/,i,1,/,/,/
CCOc1ccc(Cl)cc1S(=O)(=O)NCc1cccnc1,103,0.7,i,0.81,8,121,-1
Fc1ccccc1CN1CCCN(C(=S)Nc2cccc(Cl)c2)C1,104,/,i,0.8,7,102,-2
CCOC(=O)c1sc(C)c2c1NC(C)(c1cccc3ccccc13)NC2=O (configuration not stated),99,-0.2,i,0.97,/,/,-2
COc1ccc(NC2=NC3(CCCCC3)N=C(N)N2)cc1,122,-1.9,i,1,-9,108,-20
Cn1c(=N)n(CC(=O)c2cccs2)c2ccccc21,123,-0.5,i,0.86,-16,17,-1
CC1(C)C(c2ccco2)=[N+]([O-])C2(CCCCC2=O)N1O (configuration not stated),100,-1.2,i,1,0,105,-10
CNC(=S)N/N=C(\C)c1ccc(N2CCOCC2)cc1,65,-1.5,i,0.73,/,/,9
O=C(CCCN1C(=O)/C(=C/c2cccs2)SC1=S)Nc1ccccn1,66,/,i,0.82,-60,68,12
CCOC(=O)C1(P(=O)(c2ccccc2)c2ccccc2)CCC1,103,-1.8,i,0.89,-52,66,-6
COc1ccc2c(=O)c(Oc3ccc(C(=O)O)cc3)c(C(F)(F)F)oc2c1,104,/,i,0.91,/,/,-1
N#Cc1ccc(N2C(=O)[C@@H]3C(C(=O)c4ccc5ccccc5n4)=NN[C@@H]3C2=O)cc1,98,-1.8,i,1.2,/,/,-6
Cc1cccc(N(C(=O)Nc2ccccc2)C2=NCC(C)S2)c1 (configuration not stated),97,-1.8,i,1,/,/,9
O=C(c1ccccc1)N1CCN(C2C3CC4CC(C3)CC2C4)CC1 (configuration not stated),102,-3.3,i,0.9,32,93,-5
CCN(CC)S(=O)(=O)c1cccc(-c2n[nH]c(=S)n2/N=C/c2ccc(C(=O)OC)cc2)c1,334*[activator],0.1,i,0.99,28,78,-3
CCC(C)[C@H](NC(=O)NC1CCN(Cc2ccccc2)CC1)C(=O)OC (some centres not stated),112,-2.2,i,1.1,3,55,-7
O=C(Cn1nc(-c2ccccc2)c2ccccc2c1=O)Nc1cccc(O)c1,97,/,i,0.89,/,/,-7
CCN(C(=O)CSc1nc2cc(C(F)(F)F)ccc2n1Cc1ccccc1)C1CCS(=O)(=O)C1 (configuration not stated),58,0.1,i,0.91,6,76,-7
O=C(COC(=O)C1CC(=O)N(c2nc(-c3ccccc3)cs2)C1)c1ccccc1 (configuration not stated),107,-2.0,i,0.87,46,58,1
O=C(c1cnn2c(C(F)F)cc(C3CC3)nc12)N1CCCC1,100,-2.2,i,0.81,-40,136,-1
COc1ccc2c(C)c(C(=O)O)oc2c1,106,-3.5,i,0.89,-32,125,-4
O=C1C=C(NC2CCCC2)CC(c2ccccc2)C1 (configuration not stated),103,/,/,/,8,93,-3
NC(=O)CSc1nc2cc3c(cc2c(=O)n1CCCC(=O)NCc1ccc2c(c1)OCO2)OCO3,102,-4.2,i,0.73,-31,88,3
Nc1c(C(=O)C2CC2)sc2nc(-c3cccs3)cc(C(F)(F)F)c12,121,-2.2,/,/,-186,146,-11
CN(/N=C/c1cc(Cl)cc(Cl)c1O)c1c(Cl)cccc1[N+](=O)[O-],97,/,i,0.9,/,/,/
O=c1cc(-c2cccc(Br)c2)oc2cccc(O)c12,108,/,i,0.92,/,/,/
CC(C)(C)NC(=O)CSc1nnc(-c2ccncc2)o1,48,-1.1,/,/,-192,50,-10
Cc1ccc(C(=O)/C=C/NCc2ccc(F)cc2)cc1,100,-0.3,i,0.99,44,110,-6
FC(F)(F)c1cc(C(F)(F)F)c2ccc(N3CCN(c4ccccc4)CC3)nc2n1,102,-0.4,i,0.89,21,114,-9
Cn1c(=O)c2c(nc(SCCN3CCOCC3)n2Cc2cccc3ccccc23)n(C)c1=O,104,-1.9,i,0.75,40,42,0
O=C(COC(=O)c1ccc(N2CCOCC2)c([N+](=O)[O-])c1)Nc1ccc2c(c1)OCO2,96,-0.3,i,1,21,95,-4
COc1cccc2cc(C(=O)N3CCN(c4ccc(C)cc4C)CC3)c(=O)oc12,108,-1.8,i,0.93,/,/,6
Cc1cc2cc(CN(Cc3ccco3)S(=O)(=O)c3c(C)ccc4nsnc34)c(=O)[nH]c2cc1C,100,-1.4,i,1,20,107,5
COc1ccc(OCCCC(=O)Nc2ccc3c(c2)OCO3)cc1,101,-1.4,i,0.97,-75,101,-7
Cc1cc(NC(=O)/C=C/c2cccc(F)c2)n(-c2nc3ccccc3[nH]2)n1,103,0.0,i,1.1,22,83,11
CN=c1scc(-c2cc(OC)ccc2OC)n1/N=C/c1c(C)[nH]c2ccccc12,101,-1.0,i,1.1,/,/,-13
COc1ccc(N2CCN(S(=O)(=O)c3ccc(Cl)s3)CC2)cc1,100,/,i,0.98,-2,177,0
CC(Sc1nc(N)cc(=O)[nH]1)C(=O)Nc1sc2c(c1C#N)CCCC2 (configuration not stated),106,/,i,0.98,/,/,1

# Compounds as they come. Share with any hit: about 1.3%.
